Bioassay records: PubChem, several laboratories
PrP 5UTR inh = suppresses PrP 5' UTR mRNA reporter expression; 0.35% of 340,000 active; inhibition, % (no concentration beside the values); AID 488862; cell-based PrP 5' UTR mRNA reporter, plate reader;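 active = every replicate at 50% or more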;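 note: 0 = median of the neutral control wells; tested in H4 reporter cells; numbers are from one replicate; inactives centre near -14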
Mtb hypoxia rep = reduces hypoxia-regulated biosensor signal in M. tuberculosis | M. tuberculosis hypoxia-regulated fluorescent reporter, fluorescence | 0.1% of 300,000 active | fluorescence inhibition, % (no concentration beside the values);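 active = 35 to 45% if threefold the growth effect, above 45% if 1.5-fold the growth effect; inactive = the rest, general growth blockers included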;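 note: wells of about 50 µL received 100 nL stock; 0% = vehicle wells and 100% = reference inhibitor wells; whole bacteria with a GFP reporter of the hypoxia response; strong numbers were not always called active; many hits fall short of the cut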
Sa ugtP lethal = compounds lethal to S. aureus RN4220 ugtP deletion mutant | OD600 growth, 16 h; some inactives read as strong as hits | growth inhibition, % (test concentration not listed) | AID 1259309 | 0.54% of 330,000 active;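 active = z-score under -3 and OD600 up to 0.15 on both plates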;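 note: plate controls were untreated wells for no effect and antibiotic for full effect; wells of about 80 µL received 100 nL stock; the first replicate is given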
BJeLR lethal = kills HRASV12-expressing BJeLR cells | BJeLR (HRASV12) viability, CellTiter-Glo ATP luminescence, 48 h; reference of the scale not given here | inhibition, % (test concentration not listed) | 0.17% of 300,000 active | AID 1554;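 active = replicate mean above 50%; inconclusive = above 50% but judged a plate artefact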;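 note: 50 nL library stock added to about 25 µL; numbers are from one replicate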
Autofluor counter = counter-screen for toxin protease inhibitors: compound fluorescence; 3.1% of 360,000 active; compound autofluorescence counterscreen, microsphere flow cytometry; stronger effect = higher value; AID 624483; fluorescence intensity (concentration not given with the values);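 active = at least 3 SD above the mean of all compounds, about 16000 in these data; inconclusive = too few beads counted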;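 note: 100 nL of 1 mM stock went into each well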
Sa RN4220 lethal = kills Staphylococcus aureus RN4220; S. aureus RN4220 growth, OD600, 16 h; inhibition, % (concentration not given with the values); 0.33% of 330,000 active; AID 1259311;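 active = z-score of -3 or lower and OD600 up to 0.18 on both plates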;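 note: plate controls were untreated cells for no effect and reference antibiotic for full effect; stock transfer was 100 nL into about 80 µL; one replicate is shown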
Mtb hypoxia rep growth = further read-out of Mtb hypoxia rep, marked with its call; growth inhibition, %; measured here: M. tuberculosis growth (absorbance);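 0% = vehicle and 100% = reference antibiotic; read after six days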
* hit, by the source's call; u = inconclusive; x = no result given; & = joins results of further samples.

SMILES,PrP 5UTR inh,Mtb hypoxia rep,Mtb hypoxia rep growth,Sa ugtP lethal,BJeLR lethal,Autofluor counter,Sa RN4220 lethal
COc1ccc(C(=O)NCCc2ccccc2F)cc1OC1CCN(C(C)=O)CC1,-38,6,2,-1,-7,5664,1.7
CC(=O)OCCCNc1cc(SCc2ccco2)c2nonc2c1[N+](=O)[O-],3,10,12,-12,1,1960,11
COc1ccc(C(=O)COC(=O)C(C)N2C(=O)C3C4CCC(C4)C3C2=O)cc1 (stereo not drawn),-11,15,1,5,1,4785,3.9
Cc1ccc(NC(=O)CN(C)C(=O)C(C)OC(=O)CNC(=O)c2ccc(Cl)c([N+](=O)[O-])c2)cc1 (stereo not drawn),-17,7,0,17,12,3975,-2.9
CCn1c(=N)n(CC(=O)c2ccc(OC)cc2)c2ccccc21,-13,x,x,-8,2,4464,-0.5
CCN(CC)CCCNC(=O)c1ccc(C)c(NC(=O)C2=C(C)OCCS2)c1,3,-1,-2,8,4,3826,4.2
COc1ccccc1N1C(=O)CSC1=S,-35,5,4,14,-2,3254,11
Cc1ccc(CNc2cnn(C34CC5CC(CC(C5)C3)C4)c(=O)c2Cl)cc1,-9,2,12,-6,6,1960,5.5
CS(=O)(=O)N1CCC(Oc2cccc(C(=O)NCCCC3CCCC3)c2)CC1,-19,0,2,7,2,u,0.5
Cc1cccn2cc(CCNC(=O)Cc3cccs3)nc12,-18,5,3,3,-7,5424,1.6
Nc1cc2c(cc1C(=O)c1ccc(Cl)cc1)OCCO2,-4,4,9,0,0,22401*,-1.2
Cc1ccc(C(=O)NC(Cc2c[nH]c3ccccc23)C(=O)O)o1 (stereo not drawn),-4,x,x,10,0,4877,-0.8
CCOC(=O)c1ccc(N2C(=O)CC(Sc3nnc(C)s3)C2=O)cc1 (stereo not drawn),-18,11,5,1,4,3403,12
COc1ccccc1-c1noc(-c2cccnc2)n1,-7,3,-1,8,5,6638,5.2
Brc1cnc2nc(SC/C=C/c3ccccc3)[nH]c2c1,-16,-3,-8,3,4,3188,3.7
Cc1cccn2c(=O)nc(SCC(=O)Nc3ccc4c(c3)OCCO4)nc12,-2,-5,1,-6,5,4441,-3.4
CCCN(CC(=O)Nc1ccccc1C)C(=O)c1ccc(C2SCCS2)cc1,-16,-5,-3,1,-4,6337,-0.9
CC(C(=O)Nc1ccc(S(=O)(=O)N2CCCC2)cc1)N(C)CC(=O)Nc1cccc(F)c1 (stereo not drawn),-14,-2,-2,0,x,3194,-0.7
O=C(CN1C(=O)c2ccccc2S1(=O)=O)c1ccc(O)c(O)c1,8,9,-6,4,-1,x,4.1
COc1ccc(-c2csc(NC(=O)c3cc(-c4cccs4)nc4ccccc34)n2)c(OC)c1,-20,-6,9,-20,-8,2152,6.9
CCc1noc(C)c1C(=O)N1CCN(S(=O)(=O)c2ccc(Cl)cc2)CC1,-15,1,2,3,x,3789,7.4
CCOc1cc(C(=O)N/N=C\c2cn(CC)nc2C)cc(OCC)c1OCC,-6,x,x,x,22,9504,x
C=CCn1c(O)c(C(CC)=Nc2ccc3c(c2)CCC3)c(=O)[nH]c1=O,4,17,-5,9,13,5948,-2.8
CCC(C)c1ccccc1N1CC(C(=O)N(C)CC(=O)Nc2cccc(F)c2)CC1=O (stereo not drawn),5,-7,10,-4,-4,u,-2.2
CC(=O)N1CCN(c2ccc(NC(=O)COc3ccc(Cl)cc3Cl)cc2)CC1,-12,14,1,2,-2,3922,4.0
Cc1ccc(C(=O)N/C(=C\c2cccs2)C(=O)NCCCn2ccnc2)cc1C,-9,x,x,x,-5,3237,x
Cn1c(=O)c2[nH]c(=O)cnc2n(C)c1=S,-5,-4,3,-6,13,2034,-0.7
Cc1cc(C(=O)NNC(=O)COc2c(C)cc(Br)cc2C)n[nH]1,-16,-1,8,8,10,5910,-2.1
CC(=O)C1=C(C)NC(SCC(=O)c2ccc(Cl)c(Cl)c2)=C(C#N)C1c1ccco1 (stereo not drawn),-5,-3,6,44,-4,8114,-10
COc1ccccc1NC(=S)N(CCc1nc2cc(C)c(C)cc2[nH]1)Cc1cccnc1,-27,14,0,16,-3,4117,7.4

Entries of single compounds from above. Order of screens: PrP 5UTR inh, Mtb hypoxia rep, Mtb hypoxia rep growth, Sa ugtP lethal, BJeLR lethal, Autofluor counter, Sa RN4220 lethal
CC(=O)N1CCN(c2ccc(NC(=O)COc3ccc(Cl)cc3Cl)cc2)CC1 is listed as -12, 14, 1, 2, -2, 3922, 4.0
Cc1ccc(NC(=O)CN(C)C(=O)C(C)OC(=O)CNC(=O)c2ccc(Cl)c([N+](=O)[O-])c2)cc1 (stereo not drawn) is listed as -17, 7, 0, 17, 12, 3975, -2.9

The listing continues:
SMILES,PrP 5UTR inh,Mtb hypoxia rep,Mtb hypoxia rep growth,Sa ugtP lethal,BJeLR lethal,Autofluor counter,Sa RN4220 lethal
Cc1c(C)[n+](=O)c2c(n1[O-])CCC2,-28,7,1,5,-3,3258,8.8
Cc1ccc(S(=O)(=O)N2CCN(C(=O)N3CCOCC3)C2c2ccc(N(C)C)cc2)cc1 (stereo not drawn),-10,1,3,4,1,21067*,2.2
CC(=O)Nc1nc2c(F)cccc2s1,-1,7,4,-6,0,5442,-4.7
Cc1cc(NC(=O)c2ccccc2F)n(-c2nc3ccccc3[nH]2)n1,-3,18,5,2,-1,4556,-5.5
Cc1ccc(NC(=O)N2CCCC2C(=O)NCCC2=CCCCC2)cc1 (stereo not drawn),-12,10,7,-5,-6,18611*,4.1
Cc1ccc(C(=O)OCC(=O)NC2CCCCC2)o1,-21,x,x,x,3,6840,x
COc1ccc(Cn2c(C)nnc2-c2cnn(C)c2N)cc1OC,-27,6,2,6,-3,4145,-1.9
Cc1ccc2c(c1)NC(=O)CC(c1ccccc1)=N2,-36,10,5,10,12,2714,15
COc1ccccc1N1CCN(C/C(O)=C(\C#N)c2nc(-c3ccccc3)cs2)CC1,-20,x,x,x,4,4345,x
N#CC(C#N)=Cc1cccnc1,-10,17,1,1,5,3943,7.4
Cc1cccc(C)c1NC(=O)CNC(=O)c1cn(-c2ccccc2)nc1-c1ccccc1,-3,11,10,-1,2,4933,-2.1
COc1cc(NS(=O)(=O)c2ccc(NC(=S)NC(=O)C(C)(C)C)cc2)nc(OC)n1,-22,-4,-7,8,1,10667,0.8
CCOc1ccc(S(=O)(=O)N2CCCC(C(=O)Nc3cc(C)cc(C)c3)C2)cc1 (stereo not drawn),-18,8,1,19,4,3175,-4.1
COc1ccc(NC(=O)CN(C)C(=O)C23CC4CC(CC(C4)C2)C3)cc1,-12,11,7,2,-10,6025,1.9
COc1cccc(C(=O)N(Cc2cc3cc(C)ccc3[nH]c2=O)CC2CCCO2)c1 (stereo not drawn),-15,11,8,8,-11,u,2.1
COCC(C)n1c(-c2ccc3c(c2)NC(=O)CO3)csc1=Nc1ccc(OC(F)F)cc1 (stereo not drawn),-5&-5,0&2,5&2,12&10,11,u,-1.3&-1.5
Cn1cnnc1SCCOc1ccc(Cl)cc1,-32,8,-20,-3,-3,3273,-7.5
NNC(=O)c1ccc(-c2cccc([N+](=O)[O-])c2)o1,25,7,11,10,-6,3353,7.2
CCCNC(=O)c1ccc(CN2CCOCC2)cc1,-20,5,-3,9,-4,2313,4.1
CC1=NOC(=O)/C1=C\c1ccc2c(c1)OCO2,-5,0,8,3,5,4054,-2.2
Cc1noc(C)c1C(=O)Nc1ccc2ccccc2c1,-17,4,-1,-3,4,5587,2.0
NC(=O)c1cc2ccccc2o/c1=N\NC(=O)c1ccc(F)cc1,-5,x,x,x,6,2909,x
NC(=NC(=O)c1ccccc1)N1N=CCC1c1ccccc1 (stereo not drawn),-9,6,1,10,1,2479,8.3
CCCCCCNC(=O)CCCCCNS(=O)(=O)c1ccc(Br)cc1,-1,17,9,5,-1,4676,-0.1
COc1cc(C(=O)O/N=C(\N)Cc2ccc([N+](=O)[O-])cc2)cc(OC)c1OC,x,17,7,13,-1,3473,5.4
CCOC(=O)c1ccccc1NC(=O)c1nc2nccc(C)n2n1,-10,6,2,-5,-6,2618,5.6
O=C(CCC(=O)N1CCOc2ccc(Cl)cc21)N1CCC2(CC1)OCCO2,-20,18,11,4,-7,5088,4.5
NC(=O)/C(=C/c1ccco1)NC(=O)c1ccc(Br)o1,5,x,x,7,5,3965,1.6
CN1CCC(NC(=O)NC2CCCCC2)CC1,-30,3,0,4,-5,4053,12
CC(C)c1csc(CN2CCN(Cc3ccc(F)cc3)C(CCO)C2)n1 (stereo not drawn),-13,3,4,-5,-4,4893,3.3
O=C(Cn1ccc2ccccc2c1=O)NCC(=O)N1CCCCC1,-28,4,2,4,-11,6110,0.3
Cc1nc(-c2ccc(Cl)cc2)sc1C(=O)O,-53,9,14,5,-3,4203,4.6
CCN(C(=O)CSc1nc2ccccc2n1CCc1ccccc1)C1CCS(=O)(=O)C1 (stereo not drawn),-26,x,x,6,-3,2208,3.9
O=C(NN=Cc1cc([N+](=O)[O-])ccc1O)c1cccc(N2CCCC2=O)c1,x,4,0,11,x,x,60
O=C(O)/C=C/c1cccc(NC(=O)c2ccc(Cl)cc2)c1,-8,6,6,-1,2,4741,3.0
CC(C)(C)NC(=O)c1nc2ccccc2s1,-29,x,x,0,1,4704,-4.1
O=C(Oc1ccc(F)cc1)c1cccnc1,-25,15,2,8,-1,4147,2.2
Cc1ccc(C(=O)N(Cc2ccc3c(c2)OCO3)Cc2nc3ccccc3c(=O)[nH]2)cc1,-29,-6,-21,-2,-2,9543,0.4
CSCC[C@H](NC(=O)c1ccc(Cl)c(S(=O)(=O)N2CCCC2)c1)c1nc2ccccc2[nH]1,7,9,-8,14,-1,7358,5.0
COc1cccc(CN(C(=O)Cc2c[nH]c3ccccc23)C(C(=O)NC2CCCCC2)c2ccc(C)o2)c1 (stereo not drawn),-14,-3,-1,-16,-2,2056,0.1
CC(=NN=Cc1ccccc1O)c1ccccc1O,x,2,6,5,x,x,4.1
Cc1nc(SCC(=O)N2c3ccccc3Sc3ccccc32)n[nH]1,-12,x,x,-4,9,5892,3.0
c1ccc2c(c1)Oc1cccc3cccc-2c13,-22,0,7,79,-3,x,-7.9
O=C(O)c1cc(-c2ccc(C=NNC(=S)Nc3ccccc3)o2)ccc1Cl,x,-4,5,2,x,x,5.2
O=C1C2C3C=CC(CC3)C2C(=O)N1c1nccs1 (stereo not drawn),-61,5,8,5,-7,2065,3.7
C=CCSc1nc2ccccc2n1S(=O)(=O)c1ccc(C)cc1,-9,x,x,2,x,2393,0.3
O=C(NN=C/C=C/c1ccccc1[N+](=O)[O-])c1ccncc1,x,x,x,2,x,x,2.3
